Insulin prom inh: TRM-6 insulin promoter activity inhibition | hit rate 0.9% among 130,000 | inhibition, % at 2 µM | AID 1273 | TRM-6 cells (human fetal islet line), insulin promoter-eGFP reporter, imaging; reporter expression induced with tamoxifen;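 active means inhibition above the mean plus 3 SD, with well images judged a real hit on visual review, cut at about 60% in these data, passing the limit was not always enough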
GALR2 ag: activates the human galanin receptor 2. activation, %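 (tested at 5 µM)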. hit rate 0.48% among 140,000. O43603. GALR2-expressing cells, agonist activation read-out;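 active means above mean plus 3 SD of all compounds, about 5% in these data, not always enough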;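 further: 0% = vehicle buffer wells and 100% = reference agonist at full effect; tested in CHO reporter cells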
Target sequence (O43603 whole entry, looked up): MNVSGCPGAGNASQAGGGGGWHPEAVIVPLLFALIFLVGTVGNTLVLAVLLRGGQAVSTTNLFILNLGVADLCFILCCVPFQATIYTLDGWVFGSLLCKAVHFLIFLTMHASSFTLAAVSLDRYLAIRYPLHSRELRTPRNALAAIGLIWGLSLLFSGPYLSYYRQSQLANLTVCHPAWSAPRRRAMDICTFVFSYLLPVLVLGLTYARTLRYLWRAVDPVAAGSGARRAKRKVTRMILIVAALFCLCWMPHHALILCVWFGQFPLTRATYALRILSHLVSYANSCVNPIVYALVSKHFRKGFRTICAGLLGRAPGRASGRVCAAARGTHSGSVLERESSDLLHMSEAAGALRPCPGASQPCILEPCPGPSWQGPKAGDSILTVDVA
PKD1 kinase inh: inhibitors of human PKD1 kinase | Q15139 | PKD1 kinase fluorescence polarization assay | inhibition, %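 (about 10 µM by stock and volumes)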 | hit rate 0.056% among 200,000;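 active means inhibition of 50% or more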;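 further: controls were vehicle for no effect and a reference inhibitor for full effect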
RGS16-Gao HTS: modulates binding between human RGS16 and Galphao. O15492+P09471. bead-based flow cytometry RGS16-Galphao binding, fluorescence; actives lie on both sides. binding response (% of control), % at 10 µM. AID 1441. hit rate 0.38% among 220,000;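 active means below 25% or above 175%, edge rows of some plates excepted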;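 further: Galphao activated by GDP with aluminum fluoride before binding; 100% = wells without compound and 0% = beads without RGS; some results beyond the cut were filed as inactive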
Target sequence (O15492 whole entry, looked up): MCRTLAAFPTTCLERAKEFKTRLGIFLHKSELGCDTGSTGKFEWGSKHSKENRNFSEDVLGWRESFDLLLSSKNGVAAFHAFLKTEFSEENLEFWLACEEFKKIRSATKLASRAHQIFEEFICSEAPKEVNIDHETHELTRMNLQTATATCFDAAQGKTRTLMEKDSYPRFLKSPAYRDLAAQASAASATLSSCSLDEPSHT
Target sequence (P09471 whole entry, looked up): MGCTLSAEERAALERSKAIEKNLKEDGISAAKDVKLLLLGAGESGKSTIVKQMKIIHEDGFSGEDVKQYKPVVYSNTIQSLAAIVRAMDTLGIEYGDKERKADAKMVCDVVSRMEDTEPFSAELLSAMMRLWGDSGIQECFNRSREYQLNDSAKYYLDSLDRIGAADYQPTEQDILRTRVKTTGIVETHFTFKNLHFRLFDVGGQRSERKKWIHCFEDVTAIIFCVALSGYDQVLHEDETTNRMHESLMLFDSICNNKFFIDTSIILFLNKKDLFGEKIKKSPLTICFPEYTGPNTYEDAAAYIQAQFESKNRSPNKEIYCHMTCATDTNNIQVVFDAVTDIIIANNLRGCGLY
HSV replic up: HSV replication enhancement; AID 1956; hit rate 0.005% among 220,000; HSV replication augmentation in cells, fold increase; maximum fold increase;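 active means peak rise of 1.5-fold or more in the series; tested in PC3 cells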;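 further: first round at 10 µM; read as green reporter fluorescence; hits show the peak of a series up to 25 µM; 1 = signal of infected wells without compound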
Insulin prom inh cell count: further read-out of Insulin prom inh, marked with its call; normalized cell count, %; measured here: cell count, toxicity; reference of the scale not given here;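 cells exposed to compound for 48 h; stained nuclei by imaging scaled within each plate; lower means fewer cells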
HSV replic up primary fold: further read-out of HSV replic up, marked with its call; fold increase; compound at 10 µM; measured here: primary screen fold increase 10 uM; tested in PC3 cells;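 GFP signal in the first replicate; 1 = infected wells without compound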
Starred values were filed as active, the others as inactive; i = inactive; . = not tested or not shown.

Every second line gives: Insulin prom inh	Insulin prom inh cell count	GALR2 ag	PKD1 kinase inh	RGS16-Gao HTS	HSV replic up	HSV replic up primary fold
- COc1ccccc1OCC(=O)Nc1ccccc1C(=O)NCc1ccco1
→ 12.5	169.2	-2.9	0.2	64.5	i	0.86
- O=C(NCc1ccccc1)c1ccc(F)c(F)c1
→ .	.	.	4.0	104.6	i	0.95
- COc1ccc(C(=O)CSc2nncn2C)cc1
→ -42.9	135.6	-1.3	-7.0	98.1	i	0.87
- Cc1ccc(C2C3=C(CCCC3=O)Nc3[nH]c(=S)[nH]c(=O)c32)cc1 (stereo unspecified)
→ 21.7	129.9	-0.9	0.3	102.9	i	1.12
- O=C(c1ccccc1NS(=O)(=O)c1cccc(C(F)(F)F)c1)N1CCc2ccccc21
→ -1.3	99.5	-0.7	-7.0	88.5	i	0.99
- COc1cc(CC2COC(=O)C2(O)Cc2ccc(O)c(OC)c2)ccc1O (stereo unspecified)
→ .	.	.	.	107.0	i	0.86
- O=C(O)c1cc2ccccc2cc1Nc1ccccc1
→ .	.	.	.	107.9	i	0.88
- O=C(O)CC(NC(=O)Nc1ccccc1)c1ccc(OC2CCCC2)cc1 (stereo unspecified)
→ 45.5	49.1	.	3.8	109.7	i	0.97
- Cc1cc(N2CCN(c3ccccc3)CC2)nc(N)n1
→ 25.0	81.8	-1.9	1.5	95.3	i	0.65
- COc1cccc(CNS(=O)(=O)c2cn(C)cn2)c1
→ .	.	-0.8	0.8	187.6	.	.
- Cc1ccc(-n2c(SCC(=O)Nc3ccc4c5c(cccc35)CC4)nc(O)cc2=O)cc1
→ -25.5	106.5	-1.1	-5.2	105.6	i	1.02
- CCOc1cc(N2CCOCC2)c(OCC)cc1NC(=O)Cc1cccc2ccccc12
→ 13.0	95.1	-1.5	-5.8	101.2	i	0.82
- O=C(COC(=O)c1ccc(S(=O)(=O)NCc2ccco2)cc1)NC1CCCCC1
→ -1.4	65.2	-0.4	-1.9	104.0	i	1.03
- COc1ccccc1NC(=O)C[n+]1ccccc1
→ -42.9	100.8	.	-12.6	96.6	i	1
- Cc1ccc(C2(O)CN(c3ccccc3C)C3=[N+]2CCS3)cc1 (stereo unspecified)
→ .	.	-0.9	-8.1	101.0	i	0.97
- COc1cc(S(=O)(=O)N2CCCCC2)ccc1NC(=O)c1ccccc1Cl
→ -86.2	122.1	-1.9	-2.0	110.8	i	1
- CCN1CCN(c2cc(C)c3cc(NC(=S)N4CCCCC4)ccc3n2)CC1
→ .	.	.	-7.2	100.4	i	0.61
- COC(=O)Nc1nnc(Cc2ccc(Cl)cc2)s1
→ -10.3	72.1	0.4	-4.2	105.6	i	1.16
- CCN1C(=O)/C(=C\C(=O)c2cccs2)c2cc(Br)ccc21
→ -94.1	130.6	.	1.3	100.2	i	0.97
- Cc1ccc(S(=O)(=O)NC(CC(=O)NCC2CCCO2)c2ccccc2)cc1 (stereo unspecified)
→ .	.	.	-5.6	105.9	i	0.89
- Cc1cc(C(=O)Nc2nnc(-c3ccccc3)s2)no1
→ .	.	-4.5	-13.5	101.8	i	0.883
- N#CC1=C(N)Oc2n[nH]c(-c3ccccn3)c2C1c1c(F)cccc1Cl (stereo unspecified)
→ 29.0	124.4	-1.3	-8.2	102.6	.	.
- COC(=O)C1=C(C)NC(C)=C(C(=O)OC)C1c1ccc(-c2cc(Cl)ccc2Cl)o1
→ -21.4	107.1	-0.4	-1.3	101.0	i	0.93
- CCCC(=O)Nc1cccc(-c2nc3ccccc3o2)c1
→ .	.	-1.3	-13.1	100.7	i	0.81
- Cc1nn(C)c(C)c1CN(Cc1nc(-c2ccc(F)cc2F)oc1C)C1CC1
→ .	.	.	-5.4	105.6	i	1
- C/C(=N\OCC(=O)Nc1cc(C)cc(C)c1)c1ccc2c(c1)OCCO2
→ 5.9	92.2	-0.1	4.2	98.7	i	1.01
- Cc1cccc(NC(=O)C2CC(O)CN2C(=O)OCc2ccccc2)c1 (stereo unspecified)
→ .	.	-3.9	-0.5	104.4	i	0.89
- CSc1nc2nc3c(cc2c(=O)n1-c1ccc(C)cc1)COC(C)(C)C3
→ .	.	.	.	101.2	i	0.94
- C=CCN(CC=C)CCCOc1ccc(Br)cc1Cl
→ -52.9	118.0	.	6.2	103.4	i	1.08
- CCCSc1nc2c(c(=O)n(C)c(=O)n2C)n1Cc1ccc(C)cc1
→ 41.2	87.4	0.1	-9.8	105.6	i	1.16

Next section
Every second line gives: Insulin prom inh	Insulin prom inh cell count	GALR2 ag	PKD1 kinase inh	RGS16-Gao HTS	HSV replic up	HSV replic up primary fold
- CCOC(=O)CN1N=C(/C=C/c2ccc(OCC)cc2)CCC1=O
→ .	.	.	-5.7	99.5	i	1
- CC(=O)C1=C(O)C(=O)N(c2cc(C(C)(C)C)on2)C1c1ccc(C(C)C)cc1 (stereo unspecified)
→ 12.1	137.8	0.7	-15.8	97.0	i	0.65
- CCn1c(SCC(=O)C(C)(C)C)nnc1-c1ccccn1
→ 15.0	66.8	-1.7	-7.1	103.3	i	0.97
- Cn1cccc1Cc1nnc(SCC(=O)N2CCc3ccccc32)n1CCc1ccccc1
→ .	.	-1.0	1.9	96.3	i	1.06
- CCS(=O)(=O)N1CCN(S(=O)(=O)c2ccccc2[N+](=O)[O-])CC1
→ 20.0	166.1	.	-5.5	102.4	i	0.96
- Cn1c(=O)oc2cc(S(=O)(=O)N3CCCC(C(=O)N4CC=C(c5ccccc5)CC4)C3)ccc21 (stereo unspecified)
→ .	.	-1.4	11.2	102.0	.	.
- Cc1nc2cc(NC(=O)NC(C)(C)C)ccc2n1C
→ .	.	.	2.2	104.8	i	0.88
- COc1ccc(NS(=O)(=O)c2ccc(O)c(NC(=O)c3ccc(S(=O)(=O)N4CCCCCC4)cc3)c2)cc1
→ 26.3	127.0	0.4	-7.8	103.7	i	0.97
- COc1ccc(-c2noc(-c3ccccc3C(=O)Nc3cccnc3)n2)cc1OC
→ -6.5	91.2	-0.7	3.1	99.3	i	0.65
- CCNc1nc(-c2cc3ccccc3o2)cs1
→ 20.0	114.0	-1.3	-6.8	102.2	i	0.99
- Cc1cc(=O)oc2cc(NC(=O)C3CCCC3)ccc12
→ .	.	.	3.3	103.0	i	0.83
- COc1ccc(C)cc1NC(=O)c1cc2ccccc2cc1OCC(=O)NCc1ccco1
→ -13.0	122.0	-1.4	-1.2	98.7	i	1.04
- COc1cccc(Nc2nnc(SCC(=O)N3CC(=O)Nc4ccccc43)s2)c1
→ .	.	.	.	103.3	i	1
- CCOC(=O)c1nnn(-c2ccccc2)c1C
→ 23.7	175.9	-1.3	-1.0	98.1	i	0.97
- COCCCNC(=S)N1CCN(Cc2ccc3c(c2)OCO3)CC1
→ .	.	.	-9.5	106.2	i	1.17
- COc1ccc(CNC(=O)CCCn2nc(C)c([N+](=O)[O-])c2C)cc1OC
→ .	.	.	5.8	99.9	i	1.16
- COCC(=O)N/N=C(\C)CC(=O)Nc1ccccc1C(N)=O
→ -26.7	108.8	-0.1	-6.6	110.3	i	1
- CC(C)c1ccc(/C=C/c2ccc(=O)n(C)n2)cc1
→ .	.	.	-2.8	99.8	i	0.62
- CC(=O)N(C(C)=O)c1nc(-c2ccccc2)cn1/N=C/c1cccc([N+](=O)[O-])c1
→ .	.	.	.	99.8	i	0.93
- Cc1ccccc1C(=O)OC1OC(=O)C(Cl)=C1N1CCOCC1 (stereo unspecified)
→ 27.8	134.3	-1.8	1.7	108.0	i	0.94
- COc1ccc(S(=O)(=O)N2CCC(O)(c3ccc(Cl)cc3)CC2)cc1
→ .	.	-1.6	-7.1	94.5	i	0.84
- CCCCOc1ccc(NC(=O)Nc2nnc(C)s2)cc1
→ .	.	.	.	110.8	i	1
- O=C(Cn1nc(-c2cccc([N+](=O)[O-])c2)c2ccccc2c1=O)Nc1cccnc1
→ -20.0	80.9	-2.1	4.8	51.8	i	0.92
- O=C1Nc2ccccc2C12OCCO2
→ 14.3	153.8	-3.9	-15.9	97.7	i	1.09
- CCc1cc(C(=O)OC)c(NC(=O)CCCC(=O)O)s1
→ .	.	-1.5	0.5	99.5	i	0.977
- CCCCn1c(-c2ccc(Cl)cc2)nc2c(=O)n(C)c(=O)[nH]c21
→ .	.	-3.6	-0.1	93.8	i	1.16
- O=C(CNCc1ccco1)Nc1ccc(N2CCCCCC2)cc1
→ .	.	.	-1.4	95.3	i	0.78
- CC1(C)CC(=O)C(C(C2=C(O)CC(C)(C)CC2=O)c2cccs2)C(=O)C1 (stereo unspecified)
→ 30.0	118.1	-1.2	-0.7	95.3	.	.
- C/C(=N\O)c1ccc(N2C(=O)C3CC=C(Cl)CC3C2=O)cc1 (stereo unspecified)
→ -31.6	81.8	1.3	-3.3	98.8	i	1.17
- C/C(N)=C(/C#N)C(=O)CN1CCCCC1
→ 30.3	106.1	-0.6	0.0	105.7	i	0.95

Three of these compounds in another layout:
> Cc1nc2cc(NC(=O)NC(C)(C)C)ccc2n1C
  Insulin prom inh: .	Insulin prom inh cell count: .	GALR2 ag: .	PKD1 kinase inh: 2.2	RGS16-Gao HTS: 104.8	HSV replic up: i	HSV replic up primary fold: 0.88
> COc1ccc(NS(=O)(=O)c2ccc(O)c(NC(=O)c3ccc(S(=O)(=O)N4CCCCCC4)cc3)c2)cc1
  Insulin prom inh: 26.3	Insulin prom inh cell count: 127.0	GALR2 ag: 0.4	PKD1 kinase inh: -7.8	RGS16-Gao HTS: 103.7	HSV replic up: i	HSV replic up primary fold: 0.97
> COc1ccc(-c2noc(-c3ccccc3C(=O)Nc3cccnc3)n2)cc1OC
  Insulin prom inh: -6.5	Insulin prom inh cell count: 91.2	GALR2 ag: -0.7	PKD1 kinase inh: 3.1	RGS16-Gao HTS: 99.3	HSV replic up: i	HSV replic up primary fold: 0.65

Remaining list, next part
Every second line gives: Insulin prom inh	Insulin prom inh cell count	GALR2 ag	PKD1 kinase inh	RGS16-Gao HTS	HSV replic up	HSV replic up primary fold
- COc1ccc(CNC(=O)C2CCCN(Cc3nc(-c4cccc(C)c4)oc3C)C2)cc1 (stereo unspecified)
→ -57.1	99.2	.	-1.4	100.5	i	0.73
- Cc1ccc(CS(=O)(=O)CCC(=O)NC2CC2)cc1
→ 8.6	138.7	-3.3	-0.4	107.7	i	0.96
- O=C(CCCOc1ccccc1)N1CCN(C(=O)c2ccco2)CC1
→ 16.7	72.4	0.1	-5.9	100.4	i	0.96
- O=C1Nc2ccccc2C(O)(C(=O)NCc2ccc3c(c2)OCO3)N1c1ccc(Cl)c(Cl)c1 (stereo unspecified)
→ 18.4	154.5	-0.5	0.8	98.9	i	1.1
- O=C(CSc1nc2sc3c(c2c(=O)[nH]1)CCC3)NCCO
→ .	.	.	.	98.6	i	1.16
- CCN1C(=O)c2n[nH]c(C(=O)OC)c2C1=O
→ .	.	-1.5	-6.5	136.1	i	0.87
- CCCn1c(N2CCN(C(=O)Nc3ccc(Cl)cc3)CC2)nc2ccccc21
→ .	.	.	-4.6	96.9	i	0.88
- O=C1/C(=C/c2ccccc2)SC(=S)N1N1C(=O)C2CC2C1=O (stereo unspecified)
→ .	.	.	2.6	106.1	i	0.89
- CCC(=O)NNC(=O)c1c(O)c2ccccc2[nH]c1=O
→ 16.7	105.0	.	-8.5	102.0	i	0.94
- CSc1ccccc1NC(=O)Cn1nc([N+](=O)[O-])c(Cl)c1C
→ 30.8	95.3	.	-3.1	100.0	i	0.87
- Cc1cc(C)cc(N(C(=O)CCC(=O)Nc2cc(C)on2)C(C(=O)NC2CCCC2)c2ccco2)c1 (stereo unspecified)
→ .	.	.	-2.6	96.5	i	0.95
- CCN(CC)CCOCCOc1ccc(Cl)c2ccccc12
→ -77.8	62.5	.	-3.3	106.5	i	0.94
- Cc1ccc(Sc2nc([N+](=O)[O-])nn2C)cc1
→ .	.	-0.1	-4.7	99.8	i	1.11
- CCOc1cc(/C=C2\C(=O)N(CCC#N)N=C2C)ccc1OCC(N)=O
→ .	.	.	0.5	101.8	i	0.97
- Cc1c(/C=N\NC(=O)c2c[nH]c3ccccc23)cnn1C
→ .	.	.	7.1	101.9	i	0.84
- COCCn1c(N)c(N(Cc2ccccc2)C(=O)c2ccc3ccccc3c2)c(=O)[nH]c1=O
→ -31.7	168.5	.	-5.2	101.8	i	0.94
- O=C1CCCC(=O)C1=C1SCCS1
→ -21.2	99.0	0.3	-3.2	52.6	i	0.92
- O=C(Cn1c2ccc(F)cc2c2nc3n(c(=O)c21)CCS3)Nc1ccc(Cl)cc1F
→ 0.0	167.0	.	-11.0	101.2	i	0.78
- CCOCCN(C(=O)c1ccccc1Cl)c1cccc(C)c1C
→ .	.	.	.	153.4	i	1.06
- COc1ccc(-c2cc(C(=O)N3CCN(c4ccccc4)CC3)no2)cc1OC
→ -100.0	87.9	-0.9	-8.1	98.9	i	1.15
- Cn1cc([N+](=O)[O-])c(C(=O)NCc2cc3cc(Cl)ccc3[nH]2)n1
→ -140.0	33.4	-2.2	1.9	110.3	i	0.86
- CCCCNc1nc2ccccc2nc1NS(=O)(=O)c1cccs1
→ .	.	-2.6	-6.4	108.8	i	0.98

Screens deposited in PubChem BioAssay by several laboratories.
